From PubChem BioAssay
VCAM-1 down = suppression of endothelial VCAM-1 upregulation – cell-based, plate reader, pooled HUVEC, TNFa stimulus (AID 454); HUVEC TNFa-induced VCAM-1 surface immunofluorescence, plate reader; numbers were filed only for top-ranked candidate wells; inhibition, % at 5 µM; actives 0.2% (n = 10,000);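 active = compound among top-ranked inhibitors of TNF-induced VCAM-1 adhesion protein staining, with the hit upheld by image or statistical review; inactive = the rest, including hits rejected on review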;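 also: 0% = TNFa with vehicle and 100% = cells without TNFa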
VCAM-1 augmentation = boosters of cytokine-driven VCAM-1 levels – imaging, high-content imaging, pooled HUVEC, TNFa stimulus (AID 457). Pooled HUVEC, TNFa-induced VCAM-1 immunofluorescence imaging; hits of this screen are not shown here. calls only. actives 0.2% (n = 10,000);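 active = a top-ranked rise in VCAM-1 staining upheld on image or statistical review; inactive = the rest, including candidates rejected on review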;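 also: compounds tested at 5 µM in the well; cells exposed to compound for 24 hours before fixing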
VCAM-1 down imaging = suppression of endothelial VCAM-1 upregulation – imaging, high-content imaging, pooled HUVEC, TNFa stimulus (AID 456). actives 0.2% (n = 10,000). one-dose inhibition, % at 5 µM; IC50 in µM for titrated hits. HUVEC TNFa-induced VCAM-1 surface expression, immunofluorescence imaging; numbers were filed only for top-ranked candidate wells;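 active = top tenth filtered wells with inhibition above zero that passed visual or statistical confirmation; inactive = the rest, including hits rejected on review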;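 also: 0% = stimulated vehicle wells and 100% = unstimulated cells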
FPR ligand = binds the human formylpeptide receptor FPR. P21462. FPR-expressing cells, fluorescent ligand binding, flow cytometry. inhibition, %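 (tested at 6.7 µM)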. actives 0.74% (n = 24,000);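 also: 0% = buffer wells and 100% = receptor blocker peptide wells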
Target sequence (P21462 whole entry, looked up): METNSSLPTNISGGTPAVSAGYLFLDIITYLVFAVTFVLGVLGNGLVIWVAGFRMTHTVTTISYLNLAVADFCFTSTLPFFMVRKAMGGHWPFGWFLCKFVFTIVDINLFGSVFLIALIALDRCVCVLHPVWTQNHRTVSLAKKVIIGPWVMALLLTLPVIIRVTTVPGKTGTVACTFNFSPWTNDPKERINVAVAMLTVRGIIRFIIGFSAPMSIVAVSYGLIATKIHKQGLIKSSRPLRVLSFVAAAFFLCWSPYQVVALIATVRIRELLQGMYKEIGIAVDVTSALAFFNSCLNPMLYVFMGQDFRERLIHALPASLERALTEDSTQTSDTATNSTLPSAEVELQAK
FPRL1 ligand = ligands of human FPRL1, also counter-screen for FPR ligands. FPRL1-expressing cells, fluorescent ligand binding inhibition, flow cytometry. actives 0.3% (n = 24,000). P25090. inhibition, %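 (tested at 6.7 µM)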;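 also: 0% = buffer alone and 100% = receptor blocker peptide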
Target sequence (P25090 whole entry, looked up): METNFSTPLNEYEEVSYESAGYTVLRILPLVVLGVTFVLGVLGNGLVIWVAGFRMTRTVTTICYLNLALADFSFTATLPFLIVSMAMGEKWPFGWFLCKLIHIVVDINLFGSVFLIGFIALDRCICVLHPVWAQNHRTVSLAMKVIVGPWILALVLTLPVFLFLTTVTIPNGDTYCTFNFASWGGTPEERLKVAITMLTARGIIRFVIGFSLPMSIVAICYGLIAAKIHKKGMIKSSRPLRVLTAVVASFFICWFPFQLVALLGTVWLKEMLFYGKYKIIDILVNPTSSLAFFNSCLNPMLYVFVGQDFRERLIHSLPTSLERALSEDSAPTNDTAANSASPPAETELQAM
The depositor's hits bear a star; i = inactive; x = not tested or not shown.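 The calls were made as follows, unless noted: active = mean above 30%; inconclusive = self-fluorescent; inactive = the rest.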 A portion of the library; the hit share may differ from the screen's.

smiles	VCAM-1 down	VCAM-1 augmentation	VCAM-1 down imaging	FPR ligand	FPRL1 ligand
Cc1ccc2oc(=O)c3cnn(CC(=O)NC4CCC(C)CC4)c3c2c1 (stereo unspecified)	x	x	x	-3.5	-4.3
COc1ccc(N(CC(=O)N2CCc3ccccc3C2)S(=O)(=O)c2c(C)nn(C)c2C)cc1	x	x	x	2.3	5.7
O=C(Nc1ccc(Nc2ccccc2)cc1)N1CCOCC1	x	x	x	-11.3	-1.2
Cc1ccc(CNC(=O)CNS(=O)(=O)c2cccc3nsnc23)cc1	x	x	x	4.6	0.7
COc1ccc(-n2c(Cc3cccn3C)nnc2SCC(=O)Nc2nccs2)cc1	x	x	x	-1.8	0.0
c1c2c(cc3sc(N4CCOCC4)nc13)OCCO2	x	x	x	-4.3	13.6
COc1ccc(Cl)cc1N1C(=O)C2CCCN2C1c1cccc(F)c1 (stereo unspecified)	x	x	x	1.6	-0.2
C[C@]12CC[C@@H]3c4ccc(OS(=O)(=O)O)cc4CC[C@H]3[C@@H]1CCC2=O	i	i	i	-4.6	-2.0
CC(=N\O)/C(CN(C)C)=N/O	i	i	i	-5.6	2.0
O=C(Cn1c(=O)oc2cc(S(=O)(=O)NCc3ccccc3)ccc21)NCc1ccco1	x	x	x	3.0	-1.8
COc1ccc(/C(O)=C2/C(=O)C(=O)N(CCN3CCOCC3)C2c2ccccn2)cc1OC (stereo unspecified)	x	x	x	-0.7	-4.4
CCN(CC)C(=O)C1CCCc2c1[nH]c1ccc(Cl)cc21 (stereo unspecified)	i	i	i	2.1	-1.1
CC(C)(C)c1ccc(C(=O)Nc2cnccn2)cc1	i	i	i	-3.2	-1.2
CCOC(=O)Nc1ccc(C(=O)Oc2ccccc2)c(O)c1	x	x	x	2.3	-10.2
C=C(C)CC1N(c2cccc(OC)c2)C(=O)C2C(C(=O)O)C3C=CC21O3 (stereo unspecified)	x	x	x	2.3	-1.6
CCOC(=O)N1CCC(NC(=O)C2CCCN(c3nc4ccccc4o3)C2)CC1 (stereo unspecified)	x	x	x	-1.5	6.8
CCOC(=O)N1CCC(Nc2nc3ccccc3n3cnnc23)CC1	i	i	i	-2.6	-4.4
CC1(C)CC(=O)c2cnc(NC(=O)Cc3ccc(Cl)cc3)nc2C1	i	i	i	-0.7	-0.2
CCN1CCN(CCNC(=O)C2CCCN(Cc3nc(-c4cccc(Cl)c4)oc3C)C2)CC1 (stereo unspecified)	x	x	x	-1.4	-1.2
COc1ccc(S(=O)(=O)Nc2ccccc2SC)cc1C	i	i	i	-1.2	1.5
Cc1ccc(S(=O)(=O)C2(C(=O)N3CCN(C4CCCCC4)CC3)CC2)cc1	x	x	x	-4.9	15.0
CCC(=O)N1C(C(=O)O)CSC1c1ccc(OC)cc1 (stereo unspecified)	x	x	x	0.7	-2.2
COc1ccc(-n2c(Cn3c(=O)sc4ccccc43)nnc2SCC(=O)N2CCCC2)cc1	x	x	x	25.1	16.9
O=C(C1CC1)N1CCc2cc(Br)cc(S(=O)(=O)N3CCCCCC3)c21	x	x	x	-2.2	-7.2
Cc1cc(C)c(C#N)c(Nc2ccc3c(c2)OCCO3)n1	x	x	x	6.3	-3.8
CC1CCc2nn(CC(=O)NCc3ccc4c(c3)OCO4)cc2C1 (stereo unspecified)	i	i	i	6.9	0.4
CCOc1ccc(N(CC(=O)OC)S(=O)(=O)c2ccc(OC)c(OC)c2)cc1	i	i	i	-11.0	2.8
COC(=O)c1ccccc1NC(=O)c1cc(-c2cccc(OC)c2)on1	x	x	x	1.2	2.6
O=C(Cn1nnc(-c2cc(Cl)ccc2-n2cnnn2)n1)N1CCCc2ccccc21	i	i	i	1.6	-7.7
Cc1ccc(Nc2ccccc2)cc1	x	x	x	-13.2	1.4
CC(=O)c1cc2c(O)c(O)ccc2o1	x	x	x	-1.6	-2.0
COc1ccc(-n2c(Cc3cc(=O)[nH]c(=O)[nH]3)nnc2SCC(=O)N2CCC(C)CC2)cc1	x	x	x	-5.9	-2.9
CC(=O)c1ccc(NC(=O)C2CCCN2S(=O)(=O)c2ccc(F)cc2)cc1 (stereo unspecified)	x	x	x	-0.8	-3.7
Nn1c(CSc2ccccn2)nc2ccccc2c1=O	x	x	x	-3.9	-0.2
CSCCC(N=CC1=C(O)CC(C)(C)CC1=O)C(=O)O (stereo unspecified)	i	i	i	5.5	-5.2
CC(=O)c1c(OCC(=O)O)ccc2c(C)cc(=O)oc12	i	i	i	3.4	-1.4
COc1ccc(Nc2nc(N)nc(CN3CCc4ccccc4C3)n2)cc1	x	x	x	-0.5	-4.1
Cc1cccc(Cc2c(C)nc3nc(SCC(=O)NCc4ccco4)nn3c2C)c1	i	i	i	1.7	2.3
CCOC(=O)C1CCCN(C(=O)c2cn(C)c(=O)c3cc(OC)c(OC)cc23)C1 (stereo unspecified)	i	i	i	0.1	-2.7
CCOC(=O)N1CCC(NC(=O)c2cnn3ccccc23)CC1	i	i	i	-3.1	3.6
COc1ccc(OC)c(NC(=O)CS(=O)(=O)c2ccccc2)c1	i	i	i	-4.2	3.3
O=C(NCc1ccc2c(c1)OCO2)C1CC(=O)N(CCc2ccccc2)C1 (stereo unspecified)	x	x	x	1.4	-0.3
CC(C)(C)OC(=O)N1CCC(c2c(C(=O)O)cnn2-c2ccccc2Cl)CC1	x	x	x	0.0	-6.1
CCOC(=O)N1CCN(C(=O)CC(=O)Nc2ccc3nc4n(c(=O)c3c2)CCCCC4)CC1	x	x	x	3.1	1.9
CCCCOCCCNC(=O)c1cccs1	i	i	i	-5.6	-12.8
CC1(C)CC(=O)C(C=Nc2ccc3c(c2)OCO3)=C(O)C1	i	i	i	1.8	0.5
CN(C)/C=N/c1c(C#N)nnn1Cc1ccccc1	x	x	x	-0.4	4.4
COc1ccc(-n2c(=O)[nH]cc(C(=O)Nc3ccc(NC(C)=O)cc3)c2=O)cc1	i	i	i	4.0	4.3
CCCC(c1nnnn1Cc1ccc(OC)cc1)N1CCN(c2ccccc2OC)CC1 (stereo unspecified)	i	i	i	-0.9	-0.4
COc1ccccc1CN1C(=O)CCC1(C)C(=O)NCc1cccnc1 (stereo unspecified)	x	x	x	-0.1	-4.1
O=C(CCn1nc(-c2ccccc2)ccc1=O)NCCCN1CCCCCC1	x	x	x	-8.1	-1.0
CCCOc1ccc(/C(O)=C2/C(=O)C(=O)N(CCOC)C2c2cccnc2)cc1 (stereo unspecified)	x	x	x	0.5	-0.4
O=C(CN(Cc1ccco1)C(=O)CNS(=O)(=O)c1ccc(F)cc1)NCCc1ccccc1	i	i	i	7.4	-0.9
O=C(CN1C(=O)CCS(=O)(=O)c2ccccc21)Nc1cccc(F)c1	i	i	i	6.6	1.8
Cc1c(NC(=O)c2ccc(=O)oc2)c(=O)n(-c2ccccc2)n1C	i	i	i	9.6	0.1
COCCNC(=O)Cc1cn(C)c2ccccc12	x	x	x	-3.8	9.5
COc1cc2[nH]c(=O)n(CCCCCC(=O)NCCCN3CCC(C)CC3)c(=O)c2cc1OC	x	x	x	-1.2	1.9
COc1ccc(NC(=O)c2oc3ccccc3c2NC(=O)COc2ccccc2OC)c(OC)c1	x	x	x	5.3	0.0
CC(C)OC(=O)CSc1nc2cccnc2n1C1CCCCC1	i	i	i	-2.9	-6.1
CCNS(=O)(=O)c1ccc(NC(=O)c2cc(C(F)(F)F)nn2C)cc1	x	x	x	-3.8	-7.3

Single entries from above:
Cc1ccc(S(=O)(=O)C2(C(=O)N3CCN(C4CCCCC4)CC3)CC2)cc1 | FPRL1 ligand: 15.0
COc1ccc(-n2c(Cc3cccn3C)nnc2SCC(=O)Nc2nccs2)cc1 | FPR ligand: -1.8

Further structures
smiles	VCAM-1 down	VCAM-1 augmentation	VCAM-1 down imaging	FPR ligand	FPRL1 ligand
CCOC(=O)c1nnn(-c2nonc2N)c1-c1cccs1	x	x	x	0.8	8.1
CCC(C)(C(=O)NC1CCCCC1)N(C(=O)c1cnccn1)c1c(C)n(C)n(-c2ccccc2)c1=O (stereo unspecified)	x	x	x	-5.1	-1.3
Cc1ccc(Cn2nc(C)c(NC(=O)c3cc(-c4ccc5c(c4)OCO5)on3)c2C)cc1	x	x	x	2.0	-0.9
CCN1CCN(C(c2cccc(OC)c2)c2sc3nc(C)nn3c2O)CC1 (stereo unspecified)	x	x	x	0.1	4.4
CCN(CC)C(=O)c1sc(NC(=O)c2ccco2)c(C#N)c1C	i	i	i	-4.6	-5.4
CS(=O)(=O)c1ccc2nc(NC(=O)c3cccs3)sc2c1	i	i	i	3.7	8.3
CCOc1ccc(-c2nc(N)ncc2-c2ccccc2)c(O)c1	i	i	i	-2.7	-1.4
CCOP(=O)(c1ccc(N(C)C)cc1)C(O)c1c(Cl)cccc1Cl (stereo unspecified)	i	i	i	-3.4	-0.3
COc1ccc(S(=O)(=O)Cc2ccc(C(=O)N3CCN(C4CCCCC4)CC3)o2)cc1	x	x	x	-3.1	-6.3
CC(C)C(NS(=O)(=O)c1cccs1)C(=O)NCc1ccc2c(c1)OCO2 (stereo unspecified)	x	x	x	-0.7	-0.6
CCCOc1ccc(C(=O)NCCCn2ccnc2)cc1	x	x	x	-1.3	11.3
O=C(CN(Cc1ccc2c(c1)OCO2)C(=O)CNS(=O)(=O)c1ccccc1)NCc1ccco1	i	i	i	10.6	5.7
CCN(CCCNC(=O)CNC(=O)Cn1cnc2ccccc2c1=O)c1ccccc1	x	x	x	3.3	2.7
CCc1c(C)sc(NC(=O)C2CCCCC2C(=O)O)c1C(N)=O (stereo unspecified)	x	x	x	-7.9	1.7
Cc1cc(C)cc(Nc2ncc3c(n2)CC(c2ccco2)CC3=O)c1 (stereo unspecified)	i	i	i	1.3	-0.7
CCOC(=O)c1sc(=S)n(-c2cc(OC)ccc2OC)c1N	x	x	x	-1.9	-0.6
CCOC(=O)C1=C(C)NC(C)=C(C(=O)OC)C1c1cccc([N+](=O)[O-])c1 (stereo unspecified)	i	i	i	0.2	2.1
Nc1cccc2c1C(=O)N(c1ccccc1)C2=O	i	i	i	-0.7	-3.8
COc1ccc(CNC(=O)c2cc(-c3cccs3)on2)cc1	x	x	x	4.6	4.8
CCC(=O)N1CCc2cc(S(=O)(=O)NCCC(=O)Nc3ccccc3C)ccc21	x	x	x	-1.8	1.3

Entries of single compounds, quoted from the list:
CCN(CC)C(=O)c1sc(NC(=O)c2ccco2)c(C#N)c1C across the screens: VCAM-1 down = i; VCAM-1 augmentation = i; VCAM-1 down imaging = i; FPR ligand = -4.6; FPRL1 ligand = -5.4
CCc1c(C)sc(NC(=O)C2CCCCC2C(=O)O)c1C(N)=O (stereo unspecified) across the screens: VCAM-1 down = x; VCAM-1 augmentation = x; VCAM-1 down imaging = x; FPR ligand = -7.9; FPRL1 ligand = 1.7

The list goes on.
smiles	VCAM-1 down	VCAM-1 augmentation	VCAM-1 down imaging	FPR ligand	FPRL1 ligand
Cc1c(C(=O)N2CCCC2)oc2c1-c1[nH]ncc1CC2	x	x	x	-5.3	1.2
O=C(NCCc1ccccc1)C1CCN(S(=O)(=O)c2cccnc2)CC1	x	x	x	0.5	0.3
Cc1cc2ccccc2c(=O)n1CC(=O)NCC(=O)N1CCN(c2ccccc2F)CC1	x	x	x	-0.9	1.8
O=C(CCNS(=O)(=O)c1cccs1)NCc1ccco1	x	x	x	1.0	-2.8
c1ccc(-c2noc(-c3ccc4ccccc4c3)n2)cc1	x	x	x	1.1	1.8
Cc1cccc(-n2nnc(C(=O)NCc3ccc4c(c3)OCO4)c2N)c1	x	x	x	-6.6	0.3
COc1ccccc1NC(=O)C(O)C(O)C(=O)Nc1ccccc1OC (stereo unspecified)	i	i	i	-0.1	4.1
CC(=O)c1ccc(N2CCN(C(=O)c3cc(C)on3)CC2)cc1	i	i	i	-3.8	-1.8
